Assay outcomes as filed in PubChem.
ClpP mod = qHTS Assay for Activators of ClpP; purified B. subtilis ClpP, FRET peptide cleavage, 20 min; Potency, µM (top dose mostly 57.5 µM), for inactives: at the top dose activity change, negative = active; 340,000 compounds, 1.9% hits; AID 651965, 2013; active = well fitted falling curve with a large enough effect; inconclusive = small, poorly fitted or top-dose-only effect; inactive = no such curve, though single readings can be large or run the other way; also: potency is read from the fitted curve at half-maximal effect; the source files actives as falling curves though it sought activators and does not explain the sign; nearly all actives have a fitted effect of over 65% in size; many hits overshoot -100%
Target sequence (P80244 whole entry, looked up): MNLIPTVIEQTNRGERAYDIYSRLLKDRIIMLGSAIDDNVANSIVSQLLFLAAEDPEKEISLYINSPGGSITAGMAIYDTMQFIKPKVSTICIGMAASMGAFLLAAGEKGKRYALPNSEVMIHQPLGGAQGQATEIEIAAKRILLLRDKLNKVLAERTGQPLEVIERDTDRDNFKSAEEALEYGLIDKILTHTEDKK
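Purified B. subtilis ClpP, 10 microg/mL final in Tris/HCl pH8 with KCl, BSA, glycerol and Tween-20, cleaved an Abz/nitrotyrosine-quenched decapeptide. Fluorescence (ex 320, em 430) was read at 0 and 20 min at room temperature. Delta was normalized to 5.8 microM ADEP and DMSO/no-enzyme controls.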
TRPML1 blocker = blocks the human TRPML1 channel. Q9GZU1. TRPML1-inducible cells, Ca2+ dye fluorescence, FDSS; active compounds read low; inhibition of EC80 agonist-evoked calcium signal. activity change, negative = inhibition, % (concentration not given with the values). 390,000 compounds, 0.02% hits; in the data active means activity change below about -50%; inconclusive means about -30% to -50%; inactive means above about -30%;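 also: stimulus is agonist 54-4 at its EC80 concentration; % is scaled to controls: 0 for no effect and ±100 for the full control effect; the text of the record puts the active cut at -80%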
Target sequence (Q9GZU1 whole entry, looked up): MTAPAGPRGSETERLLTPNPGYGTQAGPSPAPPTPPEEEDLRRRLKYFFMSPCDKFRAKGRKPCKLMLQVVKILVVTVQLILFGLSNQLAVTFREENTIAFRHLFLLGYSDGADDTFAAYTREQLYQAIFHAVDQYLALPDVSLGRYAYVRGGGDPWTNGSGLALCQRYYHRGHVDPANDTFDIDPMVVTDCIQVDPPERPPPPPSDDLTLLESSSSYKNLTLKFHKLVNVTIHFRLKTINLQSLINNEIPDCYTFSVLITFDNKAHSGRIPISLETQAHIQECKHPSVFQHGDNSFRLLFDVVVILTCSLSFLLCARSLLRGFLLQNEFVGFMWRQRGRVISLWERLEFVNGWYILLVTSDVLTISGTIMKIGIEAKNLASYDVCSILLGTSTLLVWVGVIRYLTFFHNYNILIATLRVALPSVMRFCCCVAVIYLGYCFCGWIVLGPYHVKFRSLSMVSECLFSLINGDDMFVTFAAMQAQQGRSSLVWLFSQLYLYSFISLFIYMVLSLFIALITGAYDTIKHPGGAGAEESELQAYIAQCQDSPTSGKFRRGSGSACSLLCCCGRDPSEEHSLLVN
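Calcium fluorescence in TRPML1-DL cells induced overnight with Tet: a 110 s read after compound pin addition, then a 110 s antagonist read after challenge with 54-4 at 4 uM final (EC80).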
PINK1 modulator = changes PINK1 expression; Potency, µM (titrated, usually from 76.6 µM), for the others: at the top dose activation (PINK1 increase), most hits filed as activators; AID 624263; 410,000 compounds, 0.2% hits; PINK1 immunofluorescence, high-content cytometry, 24 h; active = well fitted activation curve with a large enough effect; inconclusive = small, poorly fitted or top-dose-only effect; inactive = flat fitted curve, though single readings scatter; cell line not stated here;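 also: potency is read from the fitted curve at half-maximal effect; % of control where 0% means no effect; nearly all actives have a fitted effect of over 65% in size; a mitochondrial uncoupler was the plate control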
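Cells are seeded, rested 12 hours, then given compound at five concentrations or DMSO for 24 hours. After fixation, blocking and antibody staining, PINK1 amount and mitochondrial localization are scored; CCCP serves as control.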
TRPML1 ag = agonists of human TRPML1 channel | 410,000 compounds, 0.12% hits | Q9GZU1 | activation, % (no concentration beside the values) | TRPML1-expressing cells, Ca2+ dye fluorescence, FDSS; host cell line not named in the record; reference of the full effect not given here; in the data active = activation above about 50%; inconclusive = about 30% to 50%; inactive = below about 30%; also: 0% is about no effect; the text of the record puts the active cut at 80%
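Kinetic FDSS Ca2+ read in Tet-induced TRPML1-DL cells (ABD Ca8 dye plus quencher, 45-90 min RT loading): baseline, then compound, then 110 s agonist window; EC80 agonist 54-4 at 4uM final added afterwards for a 110 s antagonist window.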
TRPV1 PAM = enhances activation of the human vanilloid receptor TRPV1. Q8NER1. TRPV1-expressing cells, Fluo-8 calcium influx, capsaicin EC20 potentiation; host cell line not named in the record; control for the full effect not named in the record. potentiation, % at 8.33 µM. 320,000 compounds, 0.02% hits. AID 540277; active means potentiation above 80%; inconclusive means 30% to 80%; inactive means below 30%; also: 0% is about no effect
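TRPV1-expressing cells were cultured overnight at 35.5C and loaded with Fluo-8 calcium dye for 40 to 90 min at room temperature. After a 10 s baseline, compound was added and calcium influx was read kinetically for 3 min (ex 480/em 520 nm).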
Sfp PPTase inh = Sfp phosphopantetheinyl transferase inhibition. 310,000 compounds, 3.5% hits. Biochemical Sfp PPTase activity, qHTS. AID 1490. Q9F4F7. Potency, µM, inactives show max response, negative = inhibition, hits mostly inhibitors; active = well fitted inhibition curve with a large enough effect; inconclusive = small, poorly fitted or top-dose-only effect, or another doubt; inactive = no such curve, though single readings can be large or run the other way;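 also: the enzyme is Sfp with the accession as filed and its product quenches rhodamine fluorescence; potency is read from the fitted curve at half-maximal effect; 0% = enzyme reaction without inhibitor and -100% = no enzyme wells; top concentration of the series not given in the record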
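After 15 min at room temperature with compound, 15 nM Sfp received 5 uM rhodamine-CoA plus 12.5 uM BHQ-2-ybbR (50 mM Hepes pH 7.6, 10 mM MgCl2). Rate came from the fluorescence difference over 30 min, ex 525/em 598 nm.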
Menin MLL FP FL = displaces fluorescein MLL peptide from human menin | FP activity change, % at 61.4 µM | 290,000 tested, under 10 active | Fluorescence polarization, fluorescein-MLL peptide displacement from menin | AID 1766; inconclusive = falling polarisation curve, or a change in total fluorescence; inactive = total fluorescence flat and polarisation flat or rising; no compound was filed as active; the % refers to the polarisation; negative = inhibition;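 also: % of control where 0% means no effect; inhibitors lower the polarisation; unlabelled MLL peptide was the positive control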
Starred values were filed as active, the others as inactive; ? = inconclusive; nt = not tested or not shown; & = joins results of further samples; [ ] = dose if it differs, or a comment.

SMILES	ClpP mod	TRPML1 blocker	PINK1 modulator	TRPML1 ag	TRPV1 PAM	Sfp PPTase inh	Menin MLL FP FL
O=C1[C@@H]2Cc3c([nH]c4ccccc34)C(c3ccc(Cl)cc3)N2C(=O)CN1CCO (some centres undefined)	1.4%	-26.8	2.9%	2.8	11.2	1.7%	-8.8
COCCCNC(=O)Cc1ccccc1OC	-1.3%	-16.2	2.0%	0.1	-3.1	16.6%	2.3
C/C(=C\c1cccc(Cl)c1Cl)C(=O)c1c(C)cc(C)[nH]c1=O	1.8%	24.8	1.1%	0.6	-1.9	17.6%	0.2
O=S(=O)(NCc1ccccc1)c1ccccc1Br	-0.1%	0.7&15.3	1.5%	0.7&-1.0	?	-8.0%&17.9%	0.3&0.0
COc1ccc(NC(=O)c2ccc(CNS(=O)(=O)c3ccc4c(c3)C(C)(C)C(=O)N4C)cc2)cc1	2.9%	16.0	5.4%	2.0	nt	nt	nt
[N-]=[N+]=CC(=O)CNC(=O)[C@@H](Cc1ccccc1)N1C(=O)c2ccccc2C1=O	0.3%	-2.5	0.7%	-0.2	-19.6	17.0%	-0.9
CC1=NC(C)Cc2ccccc21 (centres undefined)	-2.0%	-5.7	-2.4%	0.2	-10.7	3.4%	3.6
COc1ccccc1CN1CCCC2(CCN(C(C)=O)CC2)C1	nt	nt	0.8%	nt	nt	7.2%	4.1
CCc1nc2ccccc2c(C(=O)OCC(=O)N(CCOC)c2c(N)n(Cc3ccccc3)c(=O)[nH]c2=O)c1C	-3.1%	-2.5	4.1%	-0.6	-9.1	nt	nt
C=C(C)C(=O)Nc1cccc(C2=NOC3(C2)C[C@@H](C(N)=O)N(C(=O)/C=C/CC)C3)c1 (some centres undefined)	-4.4%	9.9	0.2%	-0.3	?	14.7%	3.4
COc1ccc(C)cc1N(C(=O)c1snc(C(N)=O)c1N)C(C(=O)NC1CCCC1)c1ccc(F)cc1 (centres undefined)	nt	3.3	0.2%	2.0	10.1	-2.9%	nt
Cc1ccc(N(C(=O)Cn2nnc(-c3ccc(C)o3)n2)C(C(=O)NC2CCCC2)c2ccco2)cc1 (centres undefined)	-1.8%	3.5	?	-0.2	-4.0	7.6%	7.0
Cc1ccc(NC(=O)Cn2c(=O)n(Cc3ccccc3)c(=O)c3sc4ccccc4c32)cc1	-17.8%	18.7	-0.7%	-0.6	nt	nt	nt
CCc1ccc(C(=O)c2cn(CC(=O)Nc3cc(OC)ccc3OC)c3ccc(Cl)cc3c2=O)cc1	0.3%	8.9	1.0%	-0.3	nt	nt	nt
C/C=C/c1cc(CN2CCN(c3ccc(OC)cc3)CC2)c(O)c(OC)c1	nt	-14.1	-1.2%	-0.6	21.9	1.1%	2.0
COC(=O)c1c(C(=O)OC)c(-c2ccc(Br)cc2)n2c1CS(=O)C2 (centres undefined)	-9.9%	-0.7	-0.2%	-0.4	4.8	-0.3%	-20.5
Nc1nnc(SCC(=O)Nc2cc(F)ccc2F)s1	2.3%	11.2	0.2%	0.2	-3.6	nt	nt
CCOC(=O)N1C(COCc2ccccc2)C=CCS1(=O)=O (centres undefined)	nt	4.7	nt	0.4	nt	27.6%	2.5
Cc1n[nH]c(=O)c2c(NC(=O)CSc3nc4ccccc4c(=O)n3-c3ccc(OC(F)F)cc3)oc(C)c12	-9.3%	-6.9	-0.8%	-1.0	8.1	nt	nt
Cc1cc(C)cc(NC(=O)c2cccc(N3CCCS3(=O)=O)c2)c1	-1.6%	-5.2	1.1%	1.0	nt	nt	nt
COc1ccc(C(=O)C2CCCN(C(=O)Cn3nc(C)nc3C)C2)cc1F (centres undefined)	2.4%	5.0	0.4%	-0.5	nt	nt	nt
O=C(NCCC1=CCCCC1)C1CCC(=O)N(Cc2cccc(C(F)(F)F)c2)C1 (centres undefined)	?	1.1	0.3%	-0.6	-17.3	3.6%	nt
CC(=O)NC(C)c1ccc(C(=O)CSc2nnc(C3CC3)n2C2CC2)cc1 (centres undefined)	-0.6%	9.3	1.1%	0.3	5.1	nt	nt
Cc1cccc(C(=O)NC(C)c2ccc(-n3ccnc3)cc2)c1C (centres undefined)	1.2%	-8.5	0.4%	-0.3	nt	nt	nt
CN(C)c1ccc(/C=C2\C=Cc3ccccc32)cc1Cl	-0.8%	nt	0.9%	-0.5	nt	nt	nt
COC(=O)[C@H]1C[C@@H]1[C@H](NC(=O)c1cccnc1)c1ccccc1	-1.0%	19.2	-2.0%	1.0	nt	17.7%	-1.3
Cc1cc(C)c(S(=O)(=O)N2CCN(S(=O)(=O)N3CCCCCC3)CC2)c(C)c1	0.5%	6.6	4.9%	-1.4	-3.0	19.8%	-0.5
O=C(NO)C1CC2C=CC1C2 (centres undefined)	0.0%	6.7	-2.8%[38.3 µM]	0.7	2.3	13.9%	2.5
CN(C)S(=O)(=O)c1ccc(C(=O)OCC(=O)NCc2ccco2)cc1	nt	-0.1	-1.0%	0.2	-7.9	-4.1%	1.6
Clc1ccc(-c2ccccc2)nn1	nt	16.1	2.2%	0.7	1.4	10.9%	-1.4
Cc1ccccc1NC(=O)C1CC(=O)N(Cc2ccccc2)C1 (centres undefined)	nt	9.2	-0.8%	0.2	3.8	10.3%	-0.3
CCOC(=O)c1cc2c(=O)n3ccccc3nc2n(Cc2ccco2)c1=NC(=O)c1ccc(OC)cc1	?	-2.5&6.5	9.4%&0.5%	-0.2&3.3	16.7	?	?
COC(=O)[C@]1(Cc2ccccc2)N[C@H](CN(C)C(=O)c2ccccc2)[C@@H]2C(=O)N(C)C(=O)[C@@H]21	-0.7%	-13.9	-1.3%	1.3	nt	nt	nt
CC(OC(=O)CCc1ccccc1)C(=O)Nc1ncc(Cl)cc1Cl (centres undefined)	-4.5%	-3.3	-0.4%	0.8	-10.6	-5.9%	nt
CC(=O)c1ccc(NS(=O)(=O)c2ccc(CC(C)C)cc2)cc1	-24.1%	-10.5	7.0%[38.3 µM]	0.1	18.6	13.5%	0.4
Cc1ccc(N2C(=O)N(CC(=O)Nc3cccc(C)c3C)C(=O)C2C)cc1 (centres undefined)	-0.5%	2.1	-1.4%	0.1	-3.5	nt	nt
N#CC(c1ccc(Cl)cc1)c1nc2ccccc2nc1C(F)(F)F (centres undefined)	-4.7%	22.5	8.6%	0.2	13.1	-4.2%	6.2
COc1ccc(C2(c3ccc(OC)cc3)NC(=O)N(CC(=O)Nc3ccccc3)C2=O)cc1	nt	-12.4	-0.9%	0.1	19.4	13.1%	0.5
CCC(=O)N1CCN(C(C)=O)C1c1ccccc1 (centres undefined)	1.4%	0.4	-2.1%	-0.1	1.7	9.9%	-0.1
Cc1ccc(N(CC(=O)N2CCN(c3cc(C)ccc3C)CC2)S(=O)(=O)c2c(C)nn(C)c2C)cc1	-1.1%	-4.6	23.2%	1.4	nt	nt	nt
COc1ccccc1-c1cnc(C(O)c2cccc(CN3CCCCC3)c2)[nH]1 (centres undefined)	0.1%	nt	-0.2%	-0.4	nt	nt	nt
CCc1nnc(NC(=O)C2CCCCN2S(=O)(=O)c2ccccc2)s1 (centres undefined)	0.5%	-6.9	1.2%	-0.2	1.5	?	-3.3
COc1cccc(NC(=O)CSc2nnc3ccc(-c4ccccn4)nn23)c1	-22.2%	-8.5	11.0%	-0.7	-4.3	nt	nt
O=C(CSc1oc(-c2ccco2)nc1S(=O)(=O)c1ccc(Cl)cc1)NCC1CCCO1 (centres undefined)	-3.6%	7.8	2.3%[38.3 µM]	1.0	17.8	-16.1%	3.9
COCCOC(=O)C1=C(N)OC2=C(C(=O)CC(C)(C)C2)C1c1cccnc1 (centres undefined)	-0.9%	4.0	1.4%	-0.2	-25.3	13.6%	11.5
CCOC(=O)c1c(C)n(C)c2ccc(OCC(O)CN3CCN(C)CC3)cc12 (centres undefined)	-3.8%	-2.0	0.4%	-0.5	nt	6.4%	0.0
COCCN(CC(=O)Nc1cccc(C)c1C)C(=O)c1cc2c(s1)CCC2	-1.8%	-19.6	0.7%	1.4	-9.8	nt	nt
COc1cccc(C(C(=O)NC2CCCC2)N(C(=O)c2ccco2)c2ccccc2F)c1OC (centres undefined)	nt	22.9	0.6%	-0.1	-5.8	0.5%	-2.2
CCOc1ncccc1C(=O)NCc1ccc(OC)cc1	1.5%	-0.4	15.8%[38.3 µM]	0.1	-10.9	0.8%	7.9
CCC(C)N(C(=O)c1csnn1)C(C(=O)NCc1ccc(F)cc1)c1ccco1 (centres undefined)	1.3%	15.9	55.5%[38.3 µM]	-0.9	-6.7	3.4%	-0.6
(continued)
SMILES	ClpP mod	TRPML1 blocker	PINK1 modulator	TRPML1 ag	TRPV1 PAM	Sfp PPTase inh	Menin MLL FP FL
O=c1c2ccccc2nc2c3ccccc3c(NCc3ccco3)nn12	?	-17.5	11.6%	-0.5	8.4	?	-1.2
CCOC(=O)C1=C(N)N(c2cc(S(=O)(=O)N3CCOCC3)ccc2Cl)C(=O)C1	nt	-11.3	0.6%	-0.5	-3.9	13.0%	-3.0
CC1CCCC(NC(=O)CN(C)CC(=O)Nc2ccc(F)cc2)C1C (centres undefined)	-0.5%	12.8	1.9%	-0.7	-13.6	nt	nt
COc1ccccc1NC(=S)NCc1ccco1	0.8%	7.9	1.5%	-0.1	-1.0	56.2µM*	1.6
CCOC(=O)c1ccccc1NC(=O)c1n[nH]c(=O)c2ccccc12	-2.0%	1.0	3.3%	1.2	-11.8	-7.4%	nt
Cc1ccc(C)c(NC(=O)C(=O)NCCc2csc3nc(-c4ccccc4C)nn23)c1	-8.9%	1.5	?	3.0	nt	nt	nt
O=C1CCCN1CCCNS(=O)(=O)c1ccc(Br)s1	-0.6%	35.8	1.2%	-0.2	3.6	9.5%	-0.4
CN(C)C(=O)c1cccn(Cc2cccc(C(F)(F)F)c2)c1=O	nt	5.4	2.9%	-0.6	-2.6	-4.6%	0.1
Cc1[nH]c2ccccc2c1-c1nc(N)sc1C	-1.9%	-21.0	-0.8%	1.0	6.7	-0.6%	-0.5
CCn1nc(-c2ccccc2)c(-c2ccccc2)c(C(=O)Nc2ccccc2C#N)c1=O	-0.5%	-9.4	0.6%	4.5	nt	nt	nt
Cn1ncc([N+](=O)[O-])c1C(=O)Nc1ccc2c(c1)OCCO2	31.6µM*	8.4	2.5%	1.9	-4.9	-0.3%	4.1
CC(C)Oc1ccc(C(=O)NC2CCSc3ccccc32)cc1 (centres undefined)	0.8%	6.4	7.1%	0.8	-22.5	-5.4%	nt
